Assay outcomes (PubChem)
Biofilm kill mix: mixtures killing C. albicans biofilm; C. albicans biofilm persisters + clotrimazole, fluorescence viability; primary screen in compound mixtures of four per well; inhibition, % at 7.6 µM; 0.02% of 120,000 active;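 active means inhibition above 30.3% in the primary screen of four-compound pools, then above 30% when the compound was retested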;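 further: compounds exposed to preformed 24 h biofilms for 48 h; the number belongs to the whole pool; some results filed as inactive read as strong as hits; inactives centre near 12; 0% = biofilm with clotrimazole alone and 100% = kill control; retested singly at about 60 µM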
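System: C. albicans CAF4-2 wild-type biofilms; Medium: RPMI/MOPS medium, pH 7.0; Reagent: Clotrimazole, 50 µg/mL; Times: biofilm formation 24 h, compound exposure 48 h, 37 °C; Detection: 2-h Alamar Blue fluorescence, 535/590 nm excitation/emission; Evaluation: percent inhibition of biofilm viability.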
* marks the source's active call; other numbers are inactive results. Some of the compounds tested; count on the stated rates, not on these rows.

SMILES | Biofilm kill mix
CN1CCC(N(C)C(=S)Nc2ccc(F)cc2)CC1 | 16
O=C(COc1ccc([N+](=O)[O-])cc1Cl)NCC1CCCO1 (configuration not stated) | 5
COc1ccc(N2C(=O)CC(C#N)=C2N)cc1 | 10
Oc1c(C(c2ccccn2)N2CCC(Cc3ccccc3)CC2)cc(Cl)c2cccnc12 (configuration not stated) | 13
CCN(CC(=O)NCc1ccc(Cl)cc1)Cc1cc(=O)n2ccsc2n1 | 7
O=C(N/C(=C\c1cccc([N+](=O)[O-])c1)C(=O)N(CCO)CCO)c1ccco1 | 2
C[C@@H]1C=C(C(=O)N2CCN(Cc3ccccc3)CC2)O[C@H](OCc2ccc(CO)cc2)C1 | 17
Clc1ccc(-n2nnc(-c3cccnc3Cl)n2)cn1 | 18
COc1ccccc1NS(=O)(=O)c1cc(NC(=O)C2CCC2)ccc1N1CCCCC1 | 23
CC(Sc1nc(-c2ccccc2)cs1)C(=O)Nc1ccc(Cl)cn1 (configuration not stated) | 9
C=CCN(CC=C)S(=O)(=O)c1ccc2nc(NC(=O)C3CCCO3)sc2c1 (configuration not stated) | 9
CC1=CC2=NC(=O)CC(C)(C(=O)N(CC(=O)NC(C)C)C3CCCC3)N2C=C1 (configuration not stated) | 25
COc1ccc(-c2nc(C#N)c(NCc3ccco3)o2)cc1 | 14
O=C1c2ccccc2S(=O)(=O)c2cc(C(=O)N(c3ccccn3)c3ccccn3)ccc21 | 18
Cc1cc(-c2n[nH]c(=S)n2Cc2ccccc2)cs1 | -6
O=C(/C=C\c1ccc2c(c1)OCO2)CC1(O)C(=O)Nc2ccccc21 (configuration not stated) | 18
Cc1ccc(OCc2nc(C#N)c(N3CCCCC3)o2)cc1 | 22
CCOC(=O)Cn1c(=O)cc(C)c2ccccc21 | 8
C=CCNC(=O)/C(C#N)=C/c1ccc2c(c1)OCCO2 | 16
CC1SC(C)C(=O)N(CC(=O)NC2CCCCC2)C1=O (configuration not stated) | 9

Arranged by number of heavy atoms (ascending): part of the list above.
SMILES | Biofilm kill mix
Cc1ccc(OCc2nc(C#N)c(N3CCCCC3)o2)cc1 | 22
C=CCN(CC=C)S(=O)(=O)c1ccc2nc(NC(=O)C3CCCO3)sc2c1 (configuration not stated) | 9
O=C(N/C(=C\c1cccc([N+](=O)[O-])c1)C(=O)N(CCO)CCO)c1ccco1 | 2
COc1ccccc1NS(=O)(=O)c1cc(NC(=O)C2CCC2)ccc1N1CCCCC1 | 23
Oc1c(C(c2ccccn2)N2CCC(Cc3ccccc3)CC2)cc(Cl)c2cccnc12 (configuration not stated) | 13

The list goes on:
SMILES | Biofilm kill mix
O=C(O)c1cccnc1 | 7
CC(C)(C)NNC(=S)Nc1cccc(C(F)(F)F)c1 | 14
COC(=O)[C@@]1(Cc2ccc(OC)cc2)[C@@H]2C(=CC(=O)[C@H]2CC(=O)C(=O)N2CCCC2)CN1C(=O)c1ccccc1 | 9
COc1ccccc1/C=C/C(=O)Nc1ccc2c(c1)CCC2 | 13
CC(=O)NS(=O)(=O)c1ccc(NC(=O)CSc2ccc(C)cc2)cc1 | 0
COc1ccc(-c2csc(-c3[nH]cnc3N)n2)cc1 | 13
Cc1ccc(-n2[nH]c(C)c(C=Nc3ccc(S(=O)(=O)Nc4nccs4)cc3)c2=O)cc1C | 20
CC(C)C(NC(N)=O)C(=O)NC1CCCCC1 (configuration not stated) | 13
O=C(CCc1ccc(S(=O)(=O)N2CCOCC2)cc1)N/N=C/c1ccc(F)cc1F | 12
CC1CCCN(c2ccc(F)cc2N)C1 (configuration not stated) | 20
CCn1c(SCC(=O)Nc2cc(C)on2)nc2sc3c(c2c1=O)CCCC3 | 17
Cc1c(Br)c([N+](=O)[O-])nn1CCCC(=O)Nc1sc2c(c1C(N)=O)CCC(C)C2 (configuration not stated) | 14
O=S(=O)(/N=C(/NS(=O)(=O)c1ccccc1)c1ccccc1)c1ccccc1 | 31
COc1cc(O)c(C(CC(=O)N2CCCC2)c2ccc3c(c2)OCO3)c(OC)c1 (configuration not stated) | 4
O=C(O)c1cn(Cc2cccnc2)c(=O)c2ccccc12 | 15
CCN(C(=O)CSc1nnc2ccccn12)c1c(N)n(Cc2ccccc2)c(=O)[nH]c1=O | 17
COc1ccc(NC(=O)c2ccc(COCC(F)(F)C(F)F)cc2)cc1 | 14
COc1ccc(OCc2n[nH]c(=S)n2N)cc1 | 18
CCO/N=C1\C(=O)N(c2ccccc2)c2ccccc21 | 18
C/C(=N\NC(=O)c1ccn(C)n1)c1cccc(NC(=O)c2ccc(C)s2)c1 | 9
CCCCNC(=S)NCc1ccc2[nH]c(C)cc2c1 | 12
O=C(c1ccco1)N1CCN(CCCCOc2ccc(F)cc2)CC1 | 13
Cc1ccc(C)c(C(=O)OCC(=O)Nc2ccc(N3CCOCC3)cc2)c1 | -4
O=C(Nc1nc(-c2ccccn2)cs1)c1ccco1 | 11
C/C(N)=C(/C#N)C(=O)COC(=O)CCCNC(=O)c1ccc(Cl)cc1 | 2
COc1cc(C(=O)NC(=S)N(C)Cc2ccccc2)cc(OC)c1OC | 7
O=C(NCCCCc1ccccc1)C1CC(c2ccc(C(F)(F)F)cc2)=NO1 (configuration not stated) | 13
O=C(CO)N/N=C/c1cccc(Cl)c1Cl | 7
C/C(CC(=O)Nc1ccc(Cl)c(Cl)c1)=N\NC(=O)C(=O)N1CCCCC1 | 18
CC(=O)NC1=C(N(C)C2CCS(=O)(=O)C2)C(=O)c2ccccc2C1=O (configuration not stated) | 19
C=CCN(c1ccc(C(=O)Nc2cc(C)cc(C)c2)cc1)S(C)(=O)=O | 14
COc1ccc(NC(=O)C2C3CC/C=C\CCC32)cc1 (configuration not stated) | 12
CCN(CC)C(=O)c1cc([N+](=O)[O-])cc2c1-c1ccc([N+](=O)[O-])cc1C2=C(C#N)C#N | 11
CCc1ccc(NC2Nc3cc(C)nn3S2)cc1 (configuration not stated) | 6
O=C1C2C3C=CC(CC3)C2C(=O)N1c1ccc2c(c1)OCO2 (configuration not stated) | 16
CN(Cc1ccon1)Cc1cn(Cc2ccccc2)nc1-c1ccc2c(c1)OCO2 | 10
O=C(CSc1nc2ccccc2s1)Nc1cc(S(=O)(=O)N2CCOCC2)ccc1Cl | 13
Cc1nnc(NC(=O)CSc2n[nH]c(-c3ccccc3)n2)s1 | 14
Cc1cccc(OCC(=O)N/N=C2/SCC(=O)N2Cc2ccco2)c1 | 17
N#C/C(=C/c1ccc(C(=O)O)cc1)C(=O)Nc1ccccc1 | 12
Cc1cccc(N2CCN(C(=S)NCCc3ccccc3)CC2)c1C | 18
O=[N+]([O-])c1cccc(/C([O-])=C(/C(=S)Nc2cccc3ccccc23)[n+]2ccccc2)c1 | 19
Cc1ccc(S(=O)(=O)N2CCC(=O)N(C(COCc3ccccc3)Cc3ccccc3)CC2)cc1 (configuration not stated) | 10
Cc1cc(C(=O)NN=C2CCCCC2)c2ccccc2n1 | 19
COc1ccc2oc(=O)c(-c3csc(Nc4ccc(O)cc4)n3)cc2c1 | 13
Cc1ccc(C(=O)Nc2sc(C(=O)N(C)C)c(C)c2C#N)cc1 | 7
O=C(Nc1cccnc1)c1ccc(S(=O)(=O)c2ccccc2)cc1 | 17
Cn1cc(/C=N/NC(=O)c2cccc([N+](=O)[O-])c2)c2ccccc21 | 22
Cc1cc(C)nc(SCC(=O)Nc2ncc(Cc3cccc(Cl)c3Cl)s2)n1 | 14
CSc1ncccc1C(=O)OCC(=O)C(C)(C)C | 6
Cn1ccc(C(=O)OCC(=O)Nc2cccc3ccccc23)n1 | 17
O=C(NNC(=O)C1CC1c1ccccc1)c1cccc([N+](=O)[O-])c1 (configuration not stated) | 15
COc1ccc(CCn2c(C3CCCCC3)nc3c(c(=O)c4ccccc4n3C)c2=O)cc1OC | 23
O=C(CSc1ccsc1[N+](=O)[O-])N1CCN(c2ccc(Cl)cc2)CC1 | 16
Cc1cccc(OCc2nnc(SCC(=O)Nc3cccc(C(=O)N4CCOCC4)c3)o2)c1C | 16
CC(C)Oc1ccc(Cn2c(=O)sc3ccccc32)cc1 | 2
COc1ccc(C2NC(=O)c3ccccc3O2)cc1OC (configuration not stated) | 2
O=C(CNC1=NCCC1)c1ccc(Cl)cc1 | 6
O=C(CSc1ccc(-c2ccccn2)nn1)c1ccc(F)cc1 | 18
CC(=O)c1cccc(NC(=S)NCc2ccco2)c1 | -1

Going on with the list.
SMILES | Biofilm kill mix
COC(=O)c1c(NC(=O)COC(=O)[C@@H](NS(=O)(=O)c2ccccc2)C(C)C)sc2c1CCC2 | -3
CC1(C)CC(=O)C(N=Nc2cccc(F)c2C#N)=C(O)C1 | -8
CC1=NCCN1S(=O)(=O)c1ccccc1[N+](=O)[O-] | 8
COc1ccc(CCNC(=O)COc2ccc(S(=O)(=O)NC(C)C)cc2)cc1OC | 14
Cc1ccc(NC(=O)C(=O)N2CCCC2)cc1Cl | 16
COc1cc(CC(=O)O)c([N+](=O)[O-])cc1OC | 31
Cc1ccc(NC(=O)c2snc3ccc(Cl)cc23)cc1C | 10
CCOc1ncccc1C(=O)NCc1cccc(OC)c1 | 9
Cc1cc(NC(=O)c2cccc([N+](=O)[O-])c2)no1 | 18
CCOC(=O)c1c(-c2cccc(N)c2)cn2ccccc12 | 6
CCCC(C)NC(=O)CSc1nnc(-c2c[nH]c3ccccc23)o1 (configuration not stated) | 5
COc1ccc(CCNc2ccc(N3C(=O)CC(C)C3=O)cc2[N+](=O)[O-])cc1OC (configuration not stated) | 9
Cc1ccc(/C(N)=N/OC(=O)Cc2cccc3ccccc23)cc1 | 3
Cc1cc(C)c(NC(=O)COC(=O)/C=C/c2cccs2)c(C)c1 | 17
CC1CCC(=NNC(=O)Cc2cccn2C)CC1 (configuration not stated) | -1
COc1ccc(C(=O)/C=C/c2ccc(N3CCCCC3)c([N+](=O)[O-])c2)c(OC)c1 | 18
CCOC(=O)c1sc(NC(=O)C(C)Sc2nnc(N)s2)nc1C (configuration not stated) | 14
COC(=O)c1cc(=O)n(Cc2ccc(F)cc2)c(=Nc2ccccc2)s1 | 11
NC(=O)c1cc([N+](=O)[O-])ccc1NCc1cccnc1 | 23
Cc1c(OCc2ccccc2)cccc1OCc1ccccc1 | 19

Among those listed so far, 2 contain a tert-butyl group.
SMILES | Biofilm kill mix
CC(C)(C)NNC(=S)Nc1cccc(C(F)(F)F)c1 | 14
CSc1ncccc1C(=O)OCC(=O)C(C)(C)C | 6

Carrying on:
SMILES | Biofilm kill mix
O=C(Nc1ccc(Cl)cc1C(F)(F)F)C(Sc1nnc(-c2cccs2)o1)c1ccccc1 (configuration not stated) | 0
CCCN(CC(=O)Nc1ccc(Cl)cc1Cl)C(=O)/C=C/c1cccc([N+](=O)[O-])c1 | 14
Cc1cc(/C=C2/NC(=O)NC2=O)c(C)n1-c1ccc(C#N)cc1 | 10
COc1ccc(CC(=O)NNc2ncnc3c2cnn3-c2ccc(C)cc2)cc1 | -6
CN(C)CCNC(=O)Nc1ccc(F)cc1F | 14
COc1cccc(C(=O)NCC(=O)N/N=C(C)\C=C\c2ccccc2)c1 | 20
COc1ccc(NC(=O)CSc2n[nH]c(-c3ccco3)n2)cc1 | 28
O=C(Nc1ccc2oc(=O)ccc2c1)c1ccc(-c2cccc([N+](=O)[O-])c2)o1 | 21
Cc1cc(C)c(C)c(C(=O)c2ccccc2C(=O)O)c1C | -1
Cc1c(C(=O)Nc2cccc(-c3nnc4n3CCCCC4)c2)oc2ccccc12 | 21
Cn1cc(CNCc2ccc(OC(F)(F)F)cc2)c(-c2ccc3c(c2)OCCO3)n1 | 19
N#Cc1nc(-c2cccc3ccccc23)oc1NCC1CCCO1 (configuration not stated) | 5
CCCCC(=O)Nc1ccccc1C(=O)OCC(=O)c1ccc2c(c1)OCCO2 | 17
O=C1NC(CCc2ccccc2)C(=O)N1Cc1cccc2ccccc12 (configuration not stated) | 5
COc1ccc(/C=N/NC(=O)c2ccccc2NC(=O)c2ccco2)c(OC)c1 | 8
CC12CCC(c3c(C(=O)N4CCOCC4)nn(-c4ccccc4)c31)C2(C)C (configuration not stated) | 7
O=C(NC(Cc1c[nH]c2ccccc12)C(=O)N/N=C/c1ccc(Cl)cc1)c1cccs1 (configuration not stated) | 17
Cc1ccc2[nH]cc(CCNC(=O)CN3C(=O)c4ccccc4C3=O)c2c1 | 19
CCN1CCCc2cc(CN(CCN3CCOCC3)C(=S)Nc3cc(F)cc(F)c3)ccc21 | 22
CCOc1nc(C)ccc1-c1noc(CC)n1 | -9

No new results follow: 6 of the compounds above.
SMILES | Biofilm kill mix
COc1ccc(/C=N/NC(=O)c2ccccc2NC(=O)c2ccco2)c(OC)c1 | 8
CC12CCC(c3c(C(=O)N4CCOCC4)nn(-c4ccccc4)c31)C2(C)C (configuration not stated) | 7
O=C(NC(Cc1c[nH]c2ccccc12)C(=O)N/N=C/c1ccc(Cl)cc1)c1cccs1 (configuration not stated) | 17
Cc1ccc2[nH]cc(CCNC(=O)CN3C(=O)c4ccccc4C3=O)c2c1 | 19
CCN1CCCc2cc(CN(CCN3CCOCC3)C(=S)Nc3cc(F)cc(F)c3)ccc21 | 22
CCOc1nc(C)ccc1-c1noc(CC)n1 | -9

Following part
SMILES | Biofilm kill mix
CC(C)OC(=O)CC(=O)CSc1nc(-c2ccc(F)cc2)cc(-c2ccccc2)c1C#N | 10
CCN1CC(CN(C)Cc2cn(-c3ccc(C)cc3)nc2-c2cccc(C)c2)CC1=O (configuration not stated) | 5
CC(C)C1CC(CCNCc2ccc(N(C)C)cc2)(c2ccccc2)CCO1 (configuration not stated) | 14
N#Cc1c(SC(C(=O)O)c2ccccc2)nc2c(c1-c1cccs1)CCCC2 (configuration not stated) | 27
CCOc1ccc(NC(=O)/C(C#N)=C/c2ccc(N3CCCC3)c(C)c2)cc1 | 14
COc1ccc(C(=O)c2ccc(OC)c(Br)c2)cc1Br | 9
O=C(NC1CCN(Cc2ccccc2)CC1)C12CC3CC(CC(C3)C1)C2 | 10
